S aureus helic: S. aureus DNA helicase inhibition; 120,000 tested, 0.05% active; purified S. aureus helicase, fluorescence unwinding assay; about half of the hits fall short of the stated cut; inhibition, %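 (tested at about 80 µM)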;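 active = both duplicates at 50% or more, or one of them with a favoured structure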;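 note: 0% = mean of negative control wells and 100% = mean of positive control wells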
MgrA DNA FP: alters Staphylococcus aureus MgrA binding to DNA; inhibition, %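 (about 10 µg/mL by stock and volumes)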; fluorescence polarization; 84,000 tested, 0.13% active;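 active = above 50% in either of two replicates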;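 note: 0% = protein plus DNA without compound and 100% = DNA alone without protein; higher means less MgrA bound to DNA so lower polarization; one replicate is shown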
An asterisk follows results filed as active; nt = no result given; & = joins results of further samples.

Preview, six compounds:
S aureus helic | MgrA DNA FP | Compound
-1 | nt | O=C(c1cc2ccccc2cc1OCC(=O)N1CCc2ccccc21)N1CCOCC1
-4 | nt | O=C(CN1CCCC1c1cccs1)NN1C(=O)NC2(CCCCC2)C1=O (stereo not given)
-22 | nt | COc1ccccc1N(CC(O)CN1C(C)CCCC1C)S(=O)(=O)c1ccccc1 (stereo not given)
15 | -3.0 | COC(=O)c1ccc(CNC(C)(C)C)o1
nt | -1.1 | CCOC(=O)c1c(CN2CCCC2)n(-c2ccccc2)c2cc(Br)c(O)cc12
-1 | 1.4 | Nc1c(C(=O)NCCC2=CCCCC2)nnn1-c1cccc(C(F)(F)F)c1

Results, from the first entry:
S aureus helic | MgrA DNA FP | Compound
-1 | nt | O=C(c1cc2ccccc2cc1OCC(=O)N1CCc2ccccc21)N1CCOCC1
-4 | nt | O=C(CN1CCCC1c1cccs1)NN1C(=O)NC2(CCCCC2)C1=O (stereo not given)
-22 | nt | COc1ccccc1N(CC(O)CN1C(C)CCCC1C)S(=O)(=O)c1ccccc1 (stereo not given)
15 | -3.0 | COC(=O)c1ccc(CNC(C)(C)C)o1
nt | -1.1 | CCOC(=O)c1c(CN2CCCC2)n(-c2ccccc2)c2cc(Br)c(O)cc12
-1 | 1.4 | Nc1c(C(=O)NCCC2=CCCCC2)nnn1-c1cccc(C(F)(F)F)c1
nt | -1.3 | CCOC(=O)CNC(=O)c1c(F)cccc1F
-9 | nt | CCN(CC)S(=O)(=O)c1cccc(C(=O)OCC(=O)N2CC(=O)Nc3ccccc32)c1
-17 | -1.6 | O=C1C2CCCC1CC(C(=O)N1CCCCC1)C2 (stereo not given)
-2&14 | -1.6 | CCCc1cc(=O)[nH]c(SCC(N)=O)n1
19 | nt | CN(C)c1ccc(/C=C(\C#N)S(=O)(=O)C(C)(C)C)c(F)c1C#N
16 | nt | CCc1ccc(C(=O)COC(=O)C2(CC(=O)N3CCOCC3)CCCC2)cc1
nt | -2.2 | COc1cc(C2C3=C(CC(C)(C)CC3=O)OC3=C2C(=O)CC(C)(C)C3)ccc1Oc1ccc([N+](=O)[O-])cc1C(F)(F)F
-9 | -1.0 | Cc1ccc(CCCOC(=O)CN2CCCC2)cc1
-6 | nt | CCN(C(=O)c1cc(S(=O)(=O)N2CCOCC2)cn1C)c1cccc(C)c1
-8 | nt | CCCNC(=O)C1CSC2(CCN(C)CC2)N1C(=O)CC (stereo not given)
15 | 0.4 | CCN1C(=O)/C(=C/c2ccc(F)cc2)NC1=S
-109 | nt | Cc1ccc(C(=O)O)cc1-c1ccc(C=C2C(=O)c3ccccc3C2=O)o1
13 | -2.1 | NNC(=O)C1CC1c1ccccc1 (stereo not given)
17 | nt | O=c1c(NCc2ccccc2)nccn1-c1ccccc1

Some values from the list.
S aureus helic with O=c1c(NCc2ccccc2)nccn1-c1ccccc1 = 17
S aureus helic with Cc1ccc(C(=O)O)cc1-c1ccc(C=C2C(=O)c3ccccc3C2=O)o1 = -109
S aureus helic with Cc1ccc(CCCOC(=O)CN2CCCC2)cc1 = -9
S aureus helic with NNC(=O)C1CC1c1ccccc1 (stereo not given) = 13

Following part:
S aureus helic | MgrA DNA FP | Compound
-20 | nt | Cn1nc(SCC(=O)NN)c(=O)n(C)c1=O
9 | nt | COC(=O)c1cc(OCC(=O)c2ccc[nH]2)cc(C(=O)OC)c1
-6 | nt | O=C(NC1CCCCCCC1)C1=COCCO1
-6 | 1.8 | O=C(COc1ccccc1O)c1cccs1
nt | 4.5 | COC(=O)c1sc(SC)c(S(=O)(=O)C(C)C)c1I
2 | nt | Cc1ccc(NC(=O)CC(NC2CCCCC2)C(=O)O)cc1Cl (stereo not given)
-94 | nt | CN(CCO)c1cc(Br)c2noc3c2c1C(=O)c1ccccc1-3
13 | 0.4 | COC(=O)CSc1c(-c2ccccc2)c2cc(Cl)ccc2[nH]c1=O
18 | nt | CC(C)NC(=O)COc1ncnc2ccccc12
5 | 2.0 | CC(Nc1nc2nonc2nc1NC(C)c1ccccc1)c1ccccc1 (stereo not given)
16 | -3.5 | CCC(=O)N(CCC(c1ccccc1)C1CCOC(C)(C)C1)Cc1ccc(OC)cc1 (stereo not given)
35 | nt | CC(C)OC(=O)C1C2C=CC3(CN(c4cccc(Cl)c4)C(=O)C13)O2 (stereo not given)
10 | 4.0 | O=C(c1cccc(C(=O)N2CCc3ccccc32)c1)N1CCc2ccccc21
nt | -0.2 | FC(F)(F)COc1ccc(OCC(F)(F)F)c(-c2ccn[nH]2)c1
nt | -1.1 | O=C(OCc1cnc(Cl)s1)c1ccccc1Cl
nt | -1.2 | CC(C)Sc1cc(C#N)c2cc(Br)ccc2n1
0 | 0.2 | O=C1NC(c2ccccc2)C(C(=O)c2ccco2)=C1O (stereo not given)
9 | nt | Cc1ccc(CS(=O)(=O)c2ccc(C(F)(F)F)cn2)cc1
-15 | nt | O=c1[nH]c2ccc(Br)cc2c(-c2ccccc2)c1N=Cc1ccccc1O
6 | nt | O=C(Cc1ccc(S(=O)(=O)N2CCOCC2)s1)Nc1ccc2ccccc2c1
nt | -1.9 | CCOc1nc2c(c(-c3ccco3)c1C#N)Cc1ccccc1-2
nt | 0.8 | Cn1cc(Cl)c(-c2nc(-c3ccc(Cl)cc3)cs2)n1
-5 | nt | O=C(O)Cn1nc(-c2ccccc2)cc1-c1ccccc1
-1 | 0.9 | CCCNC(=O)c1ccc2c(c1)sc1nc(-c3ccccc3)cn12
13 | 0.3 | Cc1cccc(N2C(=O)N(c3cccc(Cl)c3)C3CS(=O)(=O)CC32)c1 (stereo not given)
6 | nt | CCOC(=O)c1cc(-c2ccc(OC)c(S(=O)(=O)Nc3ccc(OC)cc3)c2)on1
-18 | -0.4 | Cc1cccc[n+]1C/C=C\c1ccccc1
nt | -4.7 | CCc1nnc(NC(=O)c2nn(-c3ccccc3)nc2C)s1
17 | nt | CCOc1ccc(OCC)c(NC(=O)CC2Oc3ccccc3NC2=O)c1 (stereo not given)
12 | 3.4 | CC(C)C1C(C#N)=C(N)OC2=C1C(=O)CC(C)(C)C2 (stereo not given)

Sorted by length of the SMILES (falling): part of the list above
S aureus helic | MgrA DNA FP | Compound
-1 | 0.9 | CCCNC(=O)c1ccc2c(c1)sc1nc(-c3ccccc3)cn12
nt | -1.9 | CCOc1nc2c(c(-c3ccco3)c1C#N)Cc1ccccc1-2
nt | -4.7 | CCc1nnc(NC(=O)c2nn(-c3ccccc3)nc2C)s1

Carrying on:
S aureus helic | MgrA DNA FP | Compound
9 | 3.8 | O=C(NCc1ccccc1)C1CCCN(C(=O)Nc2ccccc2)C1 (stereo not given)
-31 | nt | CCSc1nnc(NC(=O)C(Cc2ccccc2)NS(=O)(=O)c2cccc3nsnc23)s1 (stereo not given)
4 | nt | COc1c2ccoc2nc2c(OC)c(OC(C)=O)ccc12
nt | 1.1 | O=[N+]([O-])c1cc(/C=N/Nc2ccccn2)cs1
8 | nt | CO/N=C1\CC(C)(C)Cc2c(-c3ccn(C(C)=O)n3)sc(SC)c21
27 | -0.4 | CCN1CCCC1CNC(=O)c1cc2c(=O)oc3ccc(C)cc3c2s1 (stereo not given)
10 | nt | Cc1cnc(C(=O)Nc2ccc(OC(F)F)c(Cl)c2)cn1
nt | -2.2 | N#C/C(=C\c1ccccc1)c1nc2ccccc2[nH]1
14 | nt | CN(C)c1ccc(NC(=O)CSc2nc3ccncc3[nH]2)cc1
-14 | nt | O=c1c(-c2ccc3ccccc3n2)coc2cc(O)ccc12
10 | nt | Cc1ccc(S(=O)(=O)C2(C(=O)NC(C)c3ccccc3)CC2)cc1 (stereo not given)
-18 | nt | Cc1ccc(NS(=O)(=O)c2ccccc2)cc1
10 | nt | COc1ccc(C(=O)CSc2nc(=O)n3cc(C)ccc3n2)cc1
-10 | nt | CCOC(=O)c1c(C)[nH]c(C)c1C(=O)COc1ccc(C#N)cc1
-7 | -0.5 | Clc1nc2ccccc2n2cnnc12
-14 | 0.3 | CCN(CC)C(=O)c1cc(-c2ccccc2)on1
7 | -1.9 | C=COc1ccc(N2C(=O)c3ccccc3OC2C)cc1 (stereo not given)
-53 | 0.0 | CN(C)c1ccc(N=Cc2c(O)ccc3ccccc23)cc1
nt | -1.8 | CCc1cc2c(C)cc(=O)oc2cc1OCC(=O)Nc1cccc(C)c1
nt | 3.6 | O=c1c2ccccc2c(-c2ccc(F)cc2)nn1-c1cc(Cl)ccc1[N+](=O)[O-]
nt | -1.4 | CS/C(NCc1cccs1)=C(\C#N)S(=O)(=O)c1ccc(Cl)cc1
nt | -1.6 | CNC(=S)NNC(=O)Cn1nc(C)c(Br)c1C
-164 | -5.7 | CN1C(=O)/C(=C/c2ccc(SCc3ccccc3)o2)SC1=S
-11 | nt | O=C(Cn1ccccc1=O)Nc1ccc2c(c1)OC1(CCCC1)O2
6 | -0.7 | Cc1ccccc1NC(=O)CC1Nc2ccccc2NC1=O (stereo not given)
20 | nt | O=C(O)c1ccc(NCCC(=O)c2ccccc2)cc1
nt | 0.3 | O=C(Oc1ccc(C2Oc3ccccc3C3CC(c4ccc(Br)cc4)=NN32)cc1)c1ccc(Br)cc1 (stereo not given)
10 | nt | Cc1ccc2c(CC(=O)NC3=NCCS3)coc2c1
-17 | nt | COCCOC(=O)c1c(NC(=O)CNCc2ccco2)sc(C(N)=O)c1C
nt | -1.1 | C=CCNc1nc(OC)nc(OC)n1
-44 | nt | CC(=O)NN1C(=O)/C(=C\c2ccc(I)o2)SC1=S
19 | -5.3 | O=C(NC1CCCCC1)c1ccc(Cl)cc1
18 | nt | O=C(Oc1ccc(Cl)c2cccnc12)c1cccs1
-5 | nt | Oc1ccc(C(=S)N2CCOCC2)cc1
13 | nt | COc1ccc(-c2nnc(SC(C)c3nnc(-c4cccs4)o3)o2)cc1 (stereo not given)
7 | -0.5 | CCc1nc2ccccc2n1CCCOc1ccc(Cl)cc1
10 | -0.6 | Cc1oc(-c2ccc(Cl)cc2)nc1CN1CCC(C(=O)NC2CCCC2)CC1
-11 | nt | Nc1nc(SCC(=O)NCC2CCCO2)n[nH]1 (stereo not given)
12 | nt | CC(=O)Nc1cccc(OCC(=O)N2N=C(c3ccc(Cl)cc3)CC2c2ccco2)c1 (stereo not given)
3 | nt | CN(CC(=O)N1CCCCC1)S(=O)(=O)c1ccc2c(c1)CCCC(=O)N2
7 | 0.8 | CC(=O)N1C(=S)NC(=O)/C1=C\c1c(Cl)cccc1Cl
1 | -0.9 | Cc1cccc(CCNC(=O)c2cc(=O)[nH]c3ccc(Br)cc23)c1
3 | 0.3 | CCOC(=O)c1ccc(N=C2S/C(=C\c3cc4c(cc3OC)OCO4)C(=O)N2C)cc1
0 | 2.9 | N#CC(C#N)=CC1=C(N2CCCC2)CCCC1
8 | 1.6 | O=C(O)CCCn1cc(NC(=O)c2cccs2)cn1
nt | 2.2 | Cc1ccc(C(=O)CSC(=S)SC(C)(C)C)cc1
4 | nt | CCc1cc(=S)n2c([nH]c3ccccc32)c1C#N
-3 | 0.8 | CCN1/C(=C\C=C2\C(=O)N(C)C(=S)N2C)Sc2ccccc21
-7 | nt | COc1ccccc1Nc1nnc(SCc2ncc(-c3ccccc3)o2)s1
-10 | nt | COc1cccc(-c2nn(Cc3ccccc3)cc2CO)c1

(cont.)
S aureus helic | MgrA DNA FP | Compound
-13 | -1.1 | NC(=O)c1cccc(N2C(=O)c3ccccc3C2=O)c1
4 | nt | Cc1csc(=O)n1CC(=O)Oc1ccc(Oc2ccccc2)cc1
-17 | 4.0 | CCc1nc2sc3c(O)cc(=O)[nH]c3c2cc1C
6 | 0.1 | Cc1ccc(-c2nc(N)oc2-c2ccc(C)cc2)cc1
9 | 1.7 | Cc1ccccc1OCCCC(=O)NCc1ccco1
6 | -0.6 | COc1ccc(C(=O)Nc2ccc(-c3n[nH]c(=S)o3)cc2)cc1
nt | -3.5 | COc1cc2c(cc1OC)C(C)N(C(=O)CCC(=O)O)CC2 (stereo not given)
-32 | nt | O=S(=O)(c1ccccc1)N1CCC(Oc2ccc(-n3cnnn3)cc2)CC1
nt | 1.4 | COc1ccc(C2CC(C(F)(F)F)n3nc(C(=O)Nc4c(C)n(C)n(-c5ccccc5)c4=O)c(Cl)c3N2)cc1 (stereo not given)
-1 | 0.8 | O=C(CN1CCCC1)N1N=C(c2cccs2)CC1c1cccs1 (stereo not given)
5 | -1.9 | COc1cccc(C(=O)CN2C(=O)C(C)(C)Oc3ccc(C(=O)N4CCOCC4)cc32)c1
nt | 0.9 | O=C(O)c1ccccc1-n1cccc1
nt | 0.1 | CC1(C)Cc2cccc(C(=O)Nc3ccc(S(N)(=O)=O)cc3)c2O1
-31 | nt | O=C(O)CCc1nnc2n(Cc3ccccc3Cl)c(=O)c3ccccc3n12
11 | nt | CC(=O)N[C@H]1[C@H](Oc2nc3ccccc3o2)O[C@H](CO)[C@@H](O)[C@@H]1O
nt | -0.1 | CC1(C)CC(=O)C=C(NC(=O)Nc2ccccc2)C1
nt | 0.3 | Cc1cc(S(N)(=O)=O)c(Cl)cc1Cl
23 | nt | O=C(NCc1ccccc1)C1CCN(C(=O)N2CCOc3ccccc32)CC1
-9 | -2.9 | CC1CN(CCOc2ccccc2)CC(C)O1 (stereo not given)
nt | -3.1 | O=C1c2ccccc2-c2nnc(-c3ccc(Cl)cc3Cl)cc21
nt | -0.6 | CCCCN(CCCC)CCC(O)c1cc2c(Cl)cc(Cl)cc2c2cc(C(F)(F)F)ccc12 (stereo not given)
20 | nt | CCOC(=O)c1cc(-c2csc(-c3ccc(Cl)cc3)n2)on1
-34 | nt | CCOc1cc(Br)c(N2C(=NC(C)=O)SC3CS(=O)(=O)CC32)cc1OCC (stereo not given)
4 | -0.3 | O=C(CSc1ncn(-c2ccccc2)n1)c1ccc(Cl)cc1

2 of the compounds above, tab-delimited:
mol	S aureus helic	MgrA DNA FP
CCOC(=O)c1cc(-c2csc(-c3ccc(Cl)cc3)n2)on1	20	nt
CCOc1cc(Br)c(N2C(=NC(C)=O)SC3CS(=O)(=O)CC32)cc1OCC (stereo not given)	-34	nt

Screening results deposited in PubChem BioAssay by ICCB-Longwood Screening Facility, Harvard Medical School.

The list is partial; rates above refer to the full screens.
